Screening data deposited in PubChem by National Center for Advancing Translational Sciences (NCATS).
Marburg entry inh – Marburg virus entry inhibition. Marburg virus pseudotyped entry inhibition, cell reporter; control for the full effect not named in the record; about a third of the inactives were read at about 46 µM. Potency, µM (top dose mostly 37.8 µM), for the others: top-dose activity change, negative = inhibition, most hits filed as inhibitors. 1.8% of 300,000 active. AID 540276; active = well fitted inhibition curve with a large enough effect; inconclusive = small, poorly fitted or top-dose-only effect, or effect the other way; inactive = flat fitted curve, though single readings scatter; tested in HEK293 cells; about a fifth of its hits are not listed in these tables; also: % is scaled to controls: 0 for no effect and ±100 for the full control effect; luciferase read-out
RE007 growth inh – less growth of the S. pombe RE007 Vpr strain; 0.21% of 360,000 active; S. pombe RE007 Vpr strain, BacTiter-Glo ATP luminescence, 24 h; control for the full effect not named in the record; AID 651644; Potency, µM (top dose mostly 92.2 µM), without a hit: top-dose activity change, negative = less growth; active = well fitted falling curve with a large enough effect; inconclusive = small, poorly fitted or top-dose-only effect; inactive = no such curve, though single readings can be large or run the other way;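 also: % is scaled to controls: 0 for no effect and ±100 for the full control effect; nearly all actives have a fitted effect of over 50% in size; the assay follows cell death caused by Vpr and the record does not say whether a fall means rescue or toxicity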
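Fission yeast RE007 carrying one integrated HIV-1 vpr copy, seeded at OD 0.01 in PMG+AL medium with 23 nL pinned compound. Grown 24 h at 30 degrees; viability read by BacTiter-Glo luminescence after 5 min.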
NS1 inh – influenza NS1 inhibition | 0.4% of 270,000 active | Potency, µM (series often up to 46.1 µM), for inactives: at the top dose activity, positive = more growth | S. cerevisiae slowed by influenza A NS1, growth recovery by OD600; active means well fitted rising curve with a large enough effect; inconclusive means small, poorly fitted or top-dose-only effect; inactive means no such curve, though single readings can be large or run the other way; also: nearly all actives have a fitted effect of over 50% in size
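Growth recovery, yeast-based: influenza A NS1 expressed in S. cerevisiae causes slow growth, and suppressors are detected by OD600. The parent strain without NS1 is used as positive control.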
SARS PLpro yeast – inhibitors of SARS-CoV papain-like protease in yeast; S. cerevisiae expressing SARS-CoV PLpro, growth rescue; control for the full effect not named in the record; Potency, µM (series often up to 32.9 µM), for inactives: at the top dose activity, positive = growth rescue; 0.19% of 330,000 active; active means well fitted rising curve with a large enough effect; inconclusive means small, poorly fitted or top-dose-only effect; inactive means no such curve, though single readings can be large or run the other way; also: 0% is about no effect; nearly all actives have a fitted effect of over 55% in size; growth read by luminescence after 48 h
Cruzain inh noDet – inhibitors of Trypanosoma cruzi cruzain without detergent. AID 1476. 2.3% of 200,000 active. Potency, µM, without a hit: max response, negative = inhibition, usual class: inhibitors. purified cruzain, Z-FR-AMC fluorescence, no detergent;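 also: plate controls were enzyme without inhibitor for no effect and buffer without enzyme for full effect; nearly all actives have a fitted effect of over 40% in size; top concentration of the series not given in the record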
Target sequence (P25779 123-467 limits assumed): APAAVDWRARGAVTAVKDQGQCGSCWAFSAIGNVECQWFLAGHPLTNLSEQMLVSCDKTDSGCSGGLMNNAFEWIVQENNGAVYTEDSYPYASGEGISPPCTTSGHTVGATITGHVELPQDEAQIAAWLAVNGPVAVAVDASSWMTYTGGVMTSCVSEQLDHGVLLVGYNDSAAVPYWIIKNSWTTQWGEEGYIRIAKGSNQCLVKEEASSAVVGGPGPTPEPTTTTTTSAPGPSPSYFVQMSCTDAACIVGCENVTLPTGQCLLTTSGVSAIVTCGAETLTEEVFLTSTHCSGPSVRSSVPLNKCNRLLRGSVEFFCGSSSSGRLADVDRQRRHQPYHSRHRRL
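Detergent-free condition (0.00005% Triton X-100) in acetate buffer pH 5.5 with DTT. 1.5 nM enzyme and compound were pre-mixed 15 min, then 2 uM Z-FR-AMC substrate added; reaction progress from fluorescence change between first and third reads (60 s).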
StopGo reporter – lowers the luciferase signal of an FMDV 2A StopGo reporter. 1.2% of 410,000 active. human cells with a luciferase reporter of 2A StopGo recoding; control for the full effect not named in the record. AID 1159524. Potency, µM (doses to about 57.9 µM), without a hit: at the top dose signal change, negative = less light; active = well fitted falling curve with a large enough effect; inconclusive = small, poorly fitted or top-dose-only effect; inactive = no such curve, though single readings can be large or run the other way; tested in HEK293T cells; also: % is scaled to controls: 0 for no effect and ±100 for the full control effect; nearly all actives have a fitted effect of over 45% in size; luciferase light after 4 h
Cruzain Triton – cruzain (T. cruzi) inhibition with detergent. Potency, µM, for the others: max response, negative = inhibition, usual class: inhibitors. AID 1478. purified cruzain, Z-FR-AMC fluorescence, 0.01% Triton. P25779. 0.43% of 200,000 active;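 also: plate controls were neutral wells for no effect and buffer without enzyme for full effect; nearly all actives have a fitted effect of over 40% in size; top concentration of the series not given in the record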
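Purified cruzain (1.5 nM final) was preincubated with compounds for 15 min at room temperature in 100 mM sodium acetate pH 5.5, 5 mM DTT, 0.01% Triton X-100. Reaction started with 2 uM Z-FR-AMC; AMC fluorescence change over 60 s gave activity.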
LASV entry inh – blocks Lassa virus binding to or entry into cells; Lassa virus pseudotype entry inhibition, cell reporter; control for the full effect not named in the record; 1.2% of 300,000 active; Potency, µM (top dose mostly 37.9 µM), inactives show at the top dose activity change, negative = inhibition, hits mostly inhibitors; AID 540256; active means well fitted inhibition curve with a large enough effect; inconclusive means small, poorly fitted or top-dose-only effect, or effect the other way; inactive means flat fitted curve, though single readings scatter; tested in HEK293 cells; also: % is scaled to controls: 0 for no effect and ±100 for the full control effect; nearly all actives have a fitted effect of over 50% in size; luciferase read-out
Numbers without * were called inactive; ? = inconclusive; . = not tested or not shown; & = joins results of further samples; [ ] = dose if it differs, or a comment. Unless noted, calls follow the shape of the dose curve; as a rule, active = well fitted curve in the direction sought with a large enough effect; inconclusive = small, poorly fitted or top-dose-only effect, or another doubt; inactive = no such curve, though single readings can be large; an effect the other way counts as inactive or inconclusive. Potency is read from the fitted curve at half-maximal effect.

SMILES	Marburg entry inh	RE007 growth inh	NS1 inh	SARS PLpro yeast	Cruzain inh noDet	StopGo reporter	Cruzain Triton	LASV entry inh
Cc1ccc(S(=O)(=O)Nc2ccc(C(=O)OCC(=O)N(CCC#N)c3ccccc3)cc2)cc1C	-4%	11%	?	5%	-14%	-10%	-5.3%	?
Cc1cccc(NC(=O)NCCN2CCN(c3ccccc3)CC2)c1C	.	-8%	-1%	1%	.	-7%	.	.
CCCCC(=O)NCCc1cc2ccc(OC)cc2[nH]c1=O	?	2%	1%	-21%	-18%	-18%	-2.7%	-1%
Cc1nnc2n1N=CC=C(C(C)(C)C)S2	-4%	3%	5%	-2%	5%	-11%	-0.1%	18%
COc1ccc(NC(=O)CN2CCc3ccccc3C2)c(OC)c1	3%[46.1 µM]	-16%	-8%	-1%	.	13%	.	?
CCOc1ccc(NC(=O)C2CCN(S(=O)(=O)CC)CC2)cc1	.	1%	-5%	0%	.	-18%	.	.
COc1cc(N2C(=O)c3ccccc3C2=O)c(Cl)cc1C(=O)OCC(=O)NCc1ccco1	-2%	1%	-16%	1%	5%	0%	-8.0%	1%
COc1ccc(C(C(=O)NC(C)(C)C)N(C(=O)Cn2nnc3ccccc32)c2ccc(C(C)=O)cc2)cc1O (configuration not stated)	.	11%	-34%	3%	.	16%	.	.
Cc1c(C(=O)Nc2ccccc2C(=O)N2CCCC2)cccc1[N+](=O)[O-]	.	17%	5%	0%	.	9%	.	.
Cc1ccccc1-c1nnn(CC(=O)N2CCN(S(=O)(=O)c3ccc(Cl)cc3)CC2)n1	?	6%	10%	-1%	5%	-30%	-5.6%	5%
Cc1cc(C)c2c(n1)nn1c(NCCOCCO)cc(C)nc21	4%	0%	8%	-3%	?	1%	-24%	0%
Cc1ccc(CC(=O)NCCN2CCOCC2)cc1	10%[46.1 µM]	5%	0%	-7%	.	12%	.	?
O=C(c1sc2ccccc2c1Cl)N1CCN(c2ncccn2)CC1	4%	-25%	5%	-10%	2%	?	-9.8%	8%
COCCNCCCCSc1ccc(Cl)cc1	.	9%	2%	0%	.	-8%	.	.
CCC(=O)Nc1ccc(Cl)c(NC(=O)c2ccccc2OC)c1	?	14%	.	0%	.	3%	.	5%[46.1 µM]
CCCNC(=O)c1ccccc1C(=O)NCCC	-28%[46.1 µM]	-6%	9%	4%	1%	-13%	0.0%	2%
CCOc1ccccc1NC(=O)N1c2ccccc2Sc2ccccc21	?	.	.	.	?	4%	-4.0%	?
CCOC(=O)c1ccc(NC(=O)CCC(=O)N2Cc3ccccc3Oc3ncccc32)cc1	.	.	.	.	1%	-26%	-6.7%	-24%[46.1 µM]
NC(=O)NC(=O)COC(=O)c1ccc2noc(-c3ccccc3)c2c1	-8%[46.1 µM]	-8%	6%	-2%	.	16%	.	-2%[46.1 µM]
O=C(Nc1ccc2nsnc2c1)c1ccc2c(c1)OCO2	?	-11%	-2%	-3%	8%	-2%	-3.3%	12µM*
CCc1ccc(NC(=O)C2CCCN(S(C)(=O)=O)C2)cc1 (configuration not stated)	28%[46.1 µM]	30%	-1%	1%	.	-4%	.	20%
CCOc1cc(C#N)c(NC(=O)c2ccc(OC)c(S(=O)(=O)N3CCCC3)c2)cc1OCC	?	.	.	.	?	3%	-3.5%	-7%[46.1 µM]
CC1Sc2ccc(S(=O)(=O)CCC(=O)N3CCN(c4ccccc4)CC3)cc2NC1=O (configuration not stated)	-8%[46.1 µM]	15%	4%	2%	.	?	.	?
COCCNC(=O)Cn1cnc2c1c(=O)n(C)c(=O)n2C	8%[46.1 µM]	12%	-2%	1%	6%	-7%	3.4%	8%
CCC(O)CNc1nc(-n2nc(C)cc2C)nc2sc3c(c12)CC(C)(C)OC3 (configuration not stated)	1%	-4%	-7%	-3%	-3%	-9%	-0.5%	13%
CN(C)c1nc(F)c(F)c(S(=O)(=O)c2ccccc2)c1F	?	13%	-6%	-2%	.	28%	.	?
C[C@H](NC(=O)[C@H]1N2C(=O)c3ccccc3C2SC1(C)C)C(=O)N1CCC[C@H]1C(=O)O (some centres not stated)	.	1%	-2%	-1%	.	-6%	.	.
Cc1nc(-c2cccc(NC(=O)C(C)Oc3ccccc3)c2)cs1 (configuration not stated)	-2%	1%	-62%	-6%	.	-5%	.	8.9µM*
CCS(=O)(=O)N1CCN(Cc2ccc([N+](=O)[O-])cc2)CC1	-4%	16%	16%	4%	14%	-11%	-0.7%	-1%
Nc1nc(SCC(=O)NCc2ccco2)[nH]c(=O)c1-c1ccccc1	3%	1%	4%	-1%	-3%	.	-5.3%	1%
Cc1ccc(-n2ccc(=O)c(C(=O)O)n2)cc1	-3%	21%	-4%	1%	0%	-4%	-0.3%	28%
COc1ccc(C2(C(=O)NCCN3CCOCC3)CCOCC2)cc1	?	2%	-3%	-2%	-1%	-14%	7.3%	5%
CSC1=C(C#N)C(c2ccccc2C)C(C#N)=C(N)N1 (configuration not stated)	3%	-19%	8%	15%	0%	?	-7.2%	10%
COc1ccc(-c2ccc(CCC(=O)O)n2NC(=O)c2ccc(O)cc2)cc1	.	4%	2%	0%	.	4%	.	.
CC1CCN(C(=O)C2CCCN2S(=O)(=O)c2ccc(Cl)cc2)CC1 (configuration not stated)	21%	20%	3%	4%	.	-9%	.	7%
CCOC(=O)c1cnc2c(C#N)c(C)nn2c1C	-13%	19%	4%	13%	0%	0%	-0.3%	4%
Cc1ccc2nc(C)cc(C(=O)OCC(=O)c3ccc(Cl)c([N+](=O)[O-])c3)c2c1	-8%[46.1 µM]	0%	-53%	?	?	?	-5.2%	-18%
O=C(NCc1ccc2c(c1)OCO2)c1nc(Cn2ccc([N+](=O)[O-])n2)no1	6%[46.1 µM]	-6%	-4%	0%	.	22%	.	.
Cc1cccc(OCCC(=O)NCC(c2ccccc2)N(C)C)c1 (configuration not stated)	4%	-5%	-3%	6%	-7%	9%	4.1%	-2%
O=C(O)c1cc2cc(Cl)ccc2[nH]1	.	6%	.	.	-6%	-16%&3%	-2.7%	.
COc1ccc(/C=C2\SC(=S)N(CCC(=O)Nc3cccc(C(=O)O)c3)C2=O)cc1OC	.	-1%	?	3%	.	-4%	.	.
Cc1ccccc1C(=O)Nc1ccccc1-c1nc(-c2ccccc2)no1	-30%[46.1 µM]	.	.	.	1%	39%[activator]	-2.8%	4%[46.1 µM]
Cc1cc(NC(=O)COC(=O)c2ccc(S(=O)(=O)C(F)F)cc2)n(-c2ccccc2)n1	9%	-16%	.	-6%	.	-15%	.	10%
O=C(Nc1ccc2nc(-c3cccnc3)[nH]c2c1)c1ccccc1F	-26%	17%	12%	0%	-10%	11%	-5.4%	?
Nc1nn(-c2ccccc2)nc1C(=O)OCc1c(F)cccc1Cl	3%[46.1 µM]	.	.	.	17%	41%[activator]	-6.2%	-10%[46.1 µM]
O=C(O)/C=C\C(=O)Nc1ccc(N2CCN(c3ccc(Cl)cc3)CC2)cc1	?	-10%	1%	-3%	.	2%	.	-4%[46.1 µM]
Cc1ccc(CNC(=O)CS(=O)Cc2nc(-c3ccccc3Cl)oc2C)cc1 (configuration not stated)	.	-10%	-1%	-2%	.	-3%	.	.
COc1cc(OC)c(C(=O)OCC(=O)Nc2ccc(S(=O)(=O)N3CCOCC3)cc2)cc1OC	-2%[46.1 µM]	-17%	.	13%	.	-21%	.	4%[46.1 µM]
CN(C)c1cnn(-c2ccccc2)c(=O)c1Cl	?	-6%	9%	20%	12%	26%	-3.5%	18%
Cc1nc(SCC(=O)N2CCN(C(=O)c3cccs3)CC2)c2c(C)c(C)sc2n1	?	-13%	.	-1%	.	-11%	.	?
COc1ccc(-n2cc(CNCCc3cscn3)c(-c3ccccc3Cl)n2)cc1	?	-6%	-4%	0%	.	-6%	.	-27%[46.1 µM]
COc1cc2cc(CN(CCc3ccccc3C)C(=S)NCCCN3CCOCC3)c(=O)[nH]c2cc1OC	.	-15%	9%	0%	.	-16%	.	.
O=C(Nc1ccc2c(c1)OCCO2)C1CCN(C(=O)c2ccc(F)cc2)CC1	?	3%	-14%	-2%	-7%	.	1.5%	11%
O=C(NNC(=S)Nc1ccc(Cl)cc1Cl)C1CC1	?	-3%	9%	-6%	16%	0%	-1.0%	5%
CCN(Cc1ccccc1)Cc1nnnn1Cc1ccccc1	.	9%	-10%	-1%	.	1%	.	.
COc1ccc(N2CCN(C(=O)c3nc4nc(C)cc(C)n4n3)CC2)cc1	-8%[46.1 µM]	9%	.	-7%	.	10%	.	.
O=C(O)C(Cc1ccccc1-c1ccccc1)C(=O)O	.	4%	-11%&-3%	-2%	9%	4%	1.4%	.
Cc1ccc(NC(=O)C(c2ccc(Cl)cc2)N2CCOCC2)cc1 (configuration not stated)	0%	4%	.	-1%	.	-13%	.	3%
CCN1CCN(CC(O)COCc2ccccc2)CC1 (configuration not stated)	24%	8%	-2%	7%	-3%	-4%	3.3%	4%
N#Cc1c(N)sc2c1CCN(CCc1ccccc1)C2	10%	6%	4%	-14%	-28%	14%	-6.5%	-1%
Carrying on:
SMILES	Marburg entry inh	RE007 growth inh	NS1 inh	SARS PLpro yeast	Cruzain inh noDet	StopGo reporter	Cruzain Triton	LASV entry inh
CC(=O)N/C(=C\c1ccccc1)C(=O)Nc1ccc(O)cc1	6%[46.1 µM]	2%	4%	1%	.	65%[activator]	.	-4%
CCc1cccc(NC(=O)CN(C)S(=O)(=O)c2cccc3nsnc23)c1	-20%	-9%	-10%	4%	-3%	0%	-4.6%	-1%
CC1=C(C(=O)OC2CCCCC2)C(c2ccc(C)o2)C2=C(CC(C)(C)CC2=O)N1 (configuration not stated)	-1%	-3%	10%	-1%	20%	-15%	-0.3%	-8%
O=C(NC1CCCCC1)c1cc(Cl)nc2ccccc12	-2%	1%	-16%	?	-16%	-28%	0.8%	11%
Cc1cc(S(=O)(=O)N2CCOCC2)ccc1OCC(=O)NCc1ccccn1	24%[46.1 µM]	-3%	9%	12%	.	6%	.	12%
COc1ccc(N=Cc2c(O)n(C)c(=O)n(C)c2=O)cc1	.	-6%	4%	-1%	.	32%[activator]	.	.
COc1cc2c(cc1OC)CN(CC(=O)NC(=O)NC(C)(C)C)CC2	9%[46.1 µM]	-2%	.	-4%	.	-17%	.	-9%
